Screens deposited in PubChem by National Center for Advancing Translational Sciences (NCATS).
VDR inhibitor = vitamin D3 receptor (human) inhibition. VDR-SRC2-3 peptide fluorescence polarization, 2 h. Potency, µM, without a hit: max response, negative = inhibition, hits mostly inhibitors. 400,000 compounds, 0.93% hits. P11473; active = well fitted inhibition curve with a large enough effect; inconclusive = small, poorly fitted or top-dose-only effect, or another doubt; inactive = no such curve, though single readings can be large or run the other way; note: series mostly up to about 120 µM
Target sequence (P11473 whole entry, looked up): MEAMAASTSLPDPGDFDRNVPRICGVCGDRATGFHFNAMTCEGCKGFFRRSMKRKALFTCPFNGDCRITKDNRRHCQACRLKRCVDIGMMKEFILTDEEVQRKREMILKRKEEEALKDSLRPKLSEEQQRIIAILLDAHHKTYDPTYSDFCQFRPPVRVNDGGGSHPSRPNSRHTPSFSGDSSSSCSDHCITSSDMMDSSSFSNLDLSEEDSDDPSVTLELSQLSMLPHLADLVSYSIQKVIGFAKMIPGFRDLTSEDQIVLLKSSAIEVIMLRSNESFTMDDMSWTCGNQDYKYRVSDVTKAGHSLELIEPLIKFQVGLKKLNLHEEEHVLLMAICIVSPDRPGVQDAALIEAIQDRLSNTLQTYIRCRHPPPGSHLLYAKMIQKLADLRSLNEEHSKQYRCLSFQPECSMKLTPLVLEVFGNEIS
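Reagent solutions, kept cold and dark, are dispensed first; compounds are then pinned in at 23 nl, plates briefly spun, and incubated 2 h at ambient temperature. Inhibition of VDR–SRC2-3 peptide binding is read by fluorescence polarization.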
The depositor's hits bear a star; ? = inconclusive; & = joins results of further samples. % is set by controls: 0 for no effect and ±100 for the full control effect; potency is the fitted concentration of half-maximal effect.

SMILES	VDR inhibitor
Cc1csc(NC(=O)C2C3C=CC(C3)C2C(=O)O)n1 (centres undefined)	6.7%
Cc1nc2cnc(Nc3ccccc3)nc2n(CCC#N)c1=O	-0.2%
Cc1[nH]c2ccc(C(=O)OC(C)C(=O)N(C)C3CCCCC3)cc2c1C (centres undefined)	-4.8%
CSCc1c(C(=O)NCCc2ccccn2)oc2ccccc12	-2.6%
O=C(c1cc2ccccc2o1)N1CCN=C1SCc1cccnc1	13.4%
Cc1ccc(CN(C(=O)Cn2nnc3ccccc32)C(C(=O)NCc2ccco2)c2cccs2)cc1 (centres undefined)	-1.9%
c1ccc(-c2csc(Nc3ccccn3)n2)cc1	-3.6%
N/C(CCN1CCOCC1)=N/O	3.9%
Cc1cc(=O)oc2ccc(OC(=O)CC(C)C)cc12	-4.5%
C/C(CC(=O)Nc1cccc(Cl)c1)=N\NC(=O)Cc1ccc(Cl)cc1	4.2%
CCN(CC)S(=O)(=O)c1ccc(N2CCOCC2)c(NC(=O)Cc2cccc3ccccc23)c1	-4.0%
Cc1ccc(C(=O)c2cc(C)sc2NC(=O)CN2CCN(C(=O)c3ccco3)CC2)cc1	-7.6%
CCOc1ccc(OCC(O)CN2CCN(S(=O)(=O)c3cccc(C(F)(F)F)c3)CC2)cc1 (centres undefined)	5.9%
COc1ccccc1NC(=S)Nc1cccc(F)c1	-3.2%
O=C(/C=C/c1ccco1)Nc1ccc(S(=O)(=O)N2CCOCC2)cc1	-3.7%
CN(CC(=O)N1CCCCCC1)S(=O)(=O)c1ccccc1	9.7%
CCOc1cc(S(=O)(=O)NCc2ccncc2)c(C)cc1C	-11.3%
Cc1ccc(C(C)C)cc1OCC(=O)NCCCn1ccnc1	21.8%
CCOC(=O)C1=C(C)NC(C)=C(C(=O)OCC)C1C(=O)OCC(=O)N(C)C	12.8%
COc1ccc(C(=O)N2CCc3ccccc32)cc1	-12.1%
CCN1CC=C2C(C#N)=C(N)C(C#N)(C#N)C(CCc3ccccc3)C2C1 (centres undefined)	?
Cc1cc(C(=O)COC(=O)COc2ccccc2C#N)c(C)n1CC1CCCO1 (centres undefined)	-23.9%
COc1ccc(-c2cc(C(=O)N3CCCc4ccccc43)no2)cc1	-21.1%
COCCOc1nc2c(c(=O)n(C)c(=O)n2C)n1Cc1cccc(OC)c1	-9.9%
CCC1C/C(=C\c2cc(OC)c(OC)cc2OC)C(=O)/C(=C/c2cc(OC)c(OC)cc2OC)C1 (centres undefined)	-28.1%
Cc1ccc(N(CC(N)=O)C2SC(=O)N(C)C2=O)cc1 (centres undefined)	-6.0%
COc1ccc(S(=O)(=O)n2cccc2)cc1	-19.3%
COCCCN(C(=O)Cc1csc(-c2cccc(Cl)c2)n1)c1c(N)n(Cc2ccccc2)c(=O)[nH]c1=O	15.7%
CC(=O)c1cnc(Nc2cccc(C)c2)s1	-3.0%
Cc1cc(NC(=O)CSc2nc3c(sc4ccccc43)c(=O)n2CCCN2CCOCC2)n[nH]1	-15.3%
COCCn1c(=O)c(C)nc2cnc(N3CCNCC3)nc21	-4.4%
CC(=O)n1cc(-c2ccncc2)c2ccccc21	-17.9%
CN1CCN(S(=O)(=O)c2ccc3ccccc3c2)CC1	-2.3%
Cc1ccc(S(=O)(=O)N2CCOCC2)cc1NC(=O)COC(=O)c1ccc(Cl)s1	0.8%
CS(=O)c1ccccc1-c1nc(-c2ccc(Cl)cc2)no1 (centres undefined)	-2.1%
CCN(CC)c1ccc(C2=NNC(=O)CC2C)cc1[N+](=O)[O-] (centres undefined)	-16.4%
Clc1ccc(Cl)c(OCCCCN2CCNCC2)c1	21.2%
CCCc1cc(CNC(=O)C2CCC(=O)N(Cc3ccccc3OC)C2)on1 (centres undefined)	-8.6%
CNC(=O)CN1C(=O)c2cccnc2Sc2ccccc21	6.6%
COc1cc(OC)cc(-c2oc3cccnc3c2C#CCCO)c1	8.2%
CCOc1ccccc1NC(=O)C1=C(C)NC(=S)NC1c1cccs1 (centres undefined)	-12.3%
O=C(c1cccc(Cl)c1)N1CCC(=O)N(C(COCc2ccccc2)Cc2ccccc2)CC1 (centres undefined)	-11.3%
CC(CCc1ccccc1)NC(=O)CSc1nnnn1C (centres undefined)	-4.9%
O=C(COc1ccc(NC(=O)c2ccccc2[N+](=O)[O-])cc1)c1ccc(F)cc1	8.4%
CC1(C)Cc2c(sc(NC(=O)c3ccc(S(=O)(=O)N4CCCC4)cc3)c2C#N)C(C)(C)N1	-11.2%
Cc1ccc(OCC(O)Cn2c(N3CCCCC3)nc3c2c(=O)[nH]c(=O)n3C)cc1 (centres undefined)	-5.1%
Cc1c(Cl)c(C(=O)N2CCCC2)nn1C	17.0%
Cc1ccc(NC(=S)NCCN(C2CCCCC2)C2CCCC2)cc1	5.2%
COc1ccc(-n2c3c(cc(C(=O)NCC(=O)c4ccccc4)c2=O)C(=O)CC(C)(C)C3)cc1	-7.2%
CCCCN(C)C(=O)C1CCN(C/C(C)=C/c2ccccc2)CC1	-17.6%

Additional records:
SMILES	VDR inhibitor
C=CCn1c(CCc2ccccc2)nnc1SCC(=O)OC	-5.5%
CCOC(=O)c1c(NC(=O)CCCOc2ccc(C(C)(C)C)cc2)sc2c1CCC2	-7.9%
O=C(NCC(c1ccc2c(c1)OCO2)N1CCOCC1)c1c(F)cccc1F (centres undefined)	-0.8%
Cc1nn(CSc2c(F)c(F)c(F)c(F)c2F)c(C)c1[N+](=O)[O-]	-24.9%
CC1C=CCC2C(=O)N(c3ccc(OC(=O)c4cccs4)cc3)C(=O)C12 (centres undefined)	-14.2%
CCC1CC=CC2C1C(=O)N(Cc1ccccc1)C2c1cc(C)ccc1F (centres undefined)	?
COc1cccc(OCc2cc(C3Nc4ccccc4C(=O)N3Cc3ccco3)ccc2OC)c1 (centres undefined)	-13.2%
Cc1ccc2c(C)nc(Nc3nc(CSc4nc5ccccc5s4)cc(=O)[nH]3)nc2c1	-3.2%
N#C/C(=N/Nc1ccc(S(=O)(=O)N2CCOCC2)cc1)C(N)=O	-2.5%
O=c1cc(-c2ccc(Cl)cc2)nc(N2CCN(c3ccccc3)CC2)[nH]1	0.1%
COc1ccc(-n2c(=O)c3ccccc3n(CC(=O)NCCc3ccc(OC)c(OC)c3)c2=O)cc1	-23.4%
Cc1ccccc1NC(=O)CNc1ccccc1C(=O)NCc1ccco1	-6.4%
COc1ccc(OC)c(Nc2nc(N)nc(-c3cc4ccccc4o3)n2)c1	17.7%
CN1CCN(CCNC(=O)Nc2ccc(Cl)cc2)CC1	15.9%
CCOC(=O)C1CCCN(Cc2ccc(OCC)cc2)C1 (centres undefined)	12.3%
CCn1c(N)nc2ccccc21	11.8%
C=CCSC(CC)(CC)C(N)=O	-2.7%
NC(=O)c1ccccc1NC(=O)CCc1ccccc1	-0.2%
O=[N+]([O-])c1cccc(NNS(=O)(=O)c2ccccc2F)c1	?
Cc1sc(NC(=O)c2ccco2)c(C(c2cccnc2)N2CCCC2)c1C (centres undefined)	28.7%
CC(Sc1ccc(S(=O)(=O)N2CCOCC2)cn1)c1ccccc1Cl (centres undefined)	0.3%
Cn1c(N)c(C(=O)CSc2nc(C3CC3)n(-c3ccccc3)n2)c(=O)n(C)c1=O	-25.1%
O=C(c1ccccc1F)N1CCN(S(=O)(=O)c2ccc(S(=O)(=O)N3CCCCCC3)cc2)CC1	8.1%
O=[N+]([O-])c1ccc(S(=O)(=O)NN=C2CCCCC2)cc1	-12.4%
CC(=O)N1N=C(c2ccco2)CC1c1cc2ccc(C)cc2nc1Cl (centres undefined)	6.4%
O=C(c1cccs1)N1CCCC(c2nc3c(nnn3Cc3ccc(F)cc3)c(=O)[nH]2)C1 (centres undefined)	7.9%
Cc1cc(Br)ccc1NC(=O)CN1C(=S)NC(C)(C)CC1C (centres undefined)	-23.3%
C[C@H](CO)N1C[C@H](C)[C@@H](CN(C)C(=O)Nc2ccc3c(c2)OCO3)Oc2ccc(NC(=O)C3CCCCC3)cc2C1=O	-6.2%
COc1ccc(CCN2CC(C(=O)NCCc3ccc(C(F)(F)F)cc3)CCC2=O)cc1 (centres undefined)	-7.0%
O=C1COc2ccc(C(=O)COC(=O)c3ccco3)cc2N1	-10.9%

Part of the list above, as labelled records:
Structure: CNC(=O)CN1C(=O)c2cccnc2Sc2ccccc21
  VDR inhibitor = 6.6%
Structure: COc1cc(OC)cc(-c2oc3cccnc3c2C#CCCO)c1
  VDR inhibitor = 8.2%
Structure: CCOc1ccccc1NC(=O)C1=C(C)NC(=S)NC1c1cccs1 (centres undefined)
  VDR inhibitor = -12.3%
Structure: O=C(c1cccc(Cl)c1)N1CCC(=O)N(C(COCc2ccccc2)Cc2ccccc2)CC1 (centres undefined)
  VDR inhibitor = -11.3%

(list continues)
SMILES	VDR inhibitor
OC(CNCc1cccs1)c1ccccc1 (centres undefined)	-13.5%
C=CCNc1nc2c(c(=O)[nH]c(=O)n2C)n1CCCCC	-16.9%
Cc1ccc(Sc2ccc(C(=O)NC(C)C)cc2[N+](=O)[O-])cc1	8.0%
COc1cc(NC(=O)Cn2ccsc2=N)cc(OC)c1	-3.6%
COc1ccc(CNC(=O)CN(Cc2ccccc2)C(=O)CCC(=O)Nc2ccccn2)cc1	-1.3%
OCC(O)C1OC(c2ccco2)OC(CO)C1O (centres undefined)	-4.7%
O=C(c1nc2ccccn2c1CN1CCCC(OCc2ccccc2)C1)N1CCCC1 (centres undefined)	8.6%
CC(C(=O)Nc1nccs1)N1C(=O)c2ccccc2S1(=O)=O (centres undefined)	3.2%
NCCNC(=O)Cc1cccc(NC(=O)Cc2ccc(Nc3ncnc4c3ncn4[C@@H]3O[C@H](CO)[C@@H](O)[C@H]3O)cc2)c1	-5.9%
Cc1ccccc1NC(=O)CSCCO	-11.4%
C/C(=C\c1ccccc1)C(=O)Nc1nc2ccc([N+](=O)[O-])cc2s1	-2.6%
O=C(C[C@H]1C/C=C\C[C@@H](Cc2ccc(F)cc2)C(=O)O[C@H](c2ccccc2)CNC1=O)N[C@@H](CO)Cc1ccccc1	-1.1%
CCOc1ccc(NC(=O)CN(C)C(=O)CC2CCCCC2)cc1OCC	-11.9%
COC(=O)c1c(N)nc(C)n1-c1ccc(OC)cc1	-0.9%
O=C(Nc1nc(-c2ccc(F)c(F)c2)cs1)c1cc([N+](=O)[O-])ccc1N1CCOCC1	-16.3%
NCc1cccc(CNc2ccc([N+](=O)[O-])cc2C(N)=O)c1	20.5%
COc1ccc(/C=N/OCC(=O)NC(c2ccccc2)c2ccccc2)cc1OC	11.0%
O=C1CS/C(=N\c2ccccn2)N1C1CCCCC1	9.2%
Fc1ccccc1CSc1ncnc2c1ncn2C1CCCO1 (centres undefined)	-11.0%
O=C(c1ccc2c(=O)n(Cc3ccc(Cl)cc3)c(=S)[nH]c2c1)N1CCCC1	-2.8%
O=C1CN(C(=O)COc2ccccc2Cl)c2ccccc2N1	-20.0%
O=C(CN(Cc1ccco1)C(=O)CNS(=O)(=O)c1ccc(F)cc1)NCc1ccccc1	8.6%
O=S(=O)(Nc1ccc(Br)cc1)N1CCOCC1	-9.7%
O=C(c1cccc(C(F)(F)F)c1)C1CCCN(C(=O)CN2CCOC2=O)C1 (centres undefined)	-10.4%
Fc1ccc(/C=N/Nc2nnnn2-c2ccccc2)cc1	3.3%
CCN(CC)c1ccc(NC(=O)CN2CCN(c3nc(C)cc(C)n3)CC2)cc1	-22.0%
O=C(CSc1nc2scc(-c3ccco3)c2c(=O)n1-c1ccccc1)N1CCOCC1	-16.3%&22.6%
COc1ccc(CC(=O)NC(C)c2ccc3ccccc3c2)cc1 (centres undefined)	15.3%
C/C(=N\OCC(=O)Nn1c(=O)[nH]c2ccccc2c1=O)c1ccccc1	-23.2%
Cc1noc(C)c1CSCC(=O)N(C)CC(=O)Nc1ccccc1Br	-11.7%

Next section; the last 3 above are carried over.
SMILES	VDR inhibitor
COc1ccc(CC(=O)NC(C)c2ccc3ccccc3c2)cc1 (centres undefined)	15.3%
C/C(=N\OCC(=O)Nn1c(=O)[nH]c2ccccc2c1=O)c1ccccc1	-23.2%
Cc1noc(C)c1CSCC(=O)N(C)CC(=O)Nc1ccccc1Br	-11.7%
Cc1nc2scc(C)n2c(=O)c1S(=O)(=O)Nc1cccc(O)c1	7.1%
N#CCCCCn1c(-c2cncs2)nc2ccccc21	-7.4%
C=CCN1C(=O)C2C(C(=O)NCc3ccccc3)C3(C)C=CC2(O3)C1C(=O)NC(C)(C)C (centres undefined)	-21.0%
Cc1cc(C)cc(-n2nnnc2-c2cn(C)nc2C(F)(F)F)c1	-12.6%
Cc1ccccc1NC(=O)NCc1ccccn1	-6.4%
O=C1CC[C@@H](C(=O)N[C@@H](Cc2cnc[nH]2)C(=O)N[C@@H](Cc2c[nH]c3ccccc23)C(=O)N[C@@H](CO)C(=O)N[C@@H](Cc2ccc(O)cc2)C(=O)O)N1	-3.3%
FC(F)(F)c1cccc(OCC2CNC(=S)O2)c1 (centres undefined)	7.5%
CCOC(=O)Cc1csc(/N=C/c2c(O)n(-c3ccccc3C(F)(F)F)c(=O)c3ccccc23)n1	11.5%
COc1cc(-c2noc(C3CC(=O)N(c4cc(C)ccc4C)C3)n2)cc(OC)c1OC (centres undefined)	13.0%
Cc1ccc(C(=O)N2c3nc(-c4ccco4)nn3C3(CCCCC3)[C@@H]3CCCC[C@@H]32)cc1	1.1%
CCn1nc(C(=O)NNC(=O)C(Cc2ccccc2)NC(N)=O)c2ccccc2c1=O (centres undefined)	0.8%
Cc1cc(C)n(-c2nc3ccccc3nc2N2CCC(C)CC2)n1	-6.0%
O=C(Cc1ccc(Cl)cc1)c1c[nH]c(C(=O)NCCCn2ccnc2)c1	-16.4%
Cc1cccc(C2c3[nH]c4ccccc4c3CCN2C(=O)CN2CCOC2=O)n1 (centres undefined)	-3.5%

The list is partial. The share of hits here may be higher or lower than overall.
